Screens as filed in PubChem BioAssay.
TRPV1 potentiator = enhances activation of the human vanilloid receptor TRPV1; Q8NER1; TRPV1-expressing cells, Fluo-8 calcium influx, capsaicin EC20 potentiation; host cell line not named in the record; control for the full effect not named in the record; potentiation, % at 8.33 µM; 0.02% of 320,000 active; AID 540277; active means potentiation above 80%; inconclusive means 30% to 80%; inactive means below 30%; note: 0% is about no effect
Target sequence (Q8NER1 whole entry, looked up): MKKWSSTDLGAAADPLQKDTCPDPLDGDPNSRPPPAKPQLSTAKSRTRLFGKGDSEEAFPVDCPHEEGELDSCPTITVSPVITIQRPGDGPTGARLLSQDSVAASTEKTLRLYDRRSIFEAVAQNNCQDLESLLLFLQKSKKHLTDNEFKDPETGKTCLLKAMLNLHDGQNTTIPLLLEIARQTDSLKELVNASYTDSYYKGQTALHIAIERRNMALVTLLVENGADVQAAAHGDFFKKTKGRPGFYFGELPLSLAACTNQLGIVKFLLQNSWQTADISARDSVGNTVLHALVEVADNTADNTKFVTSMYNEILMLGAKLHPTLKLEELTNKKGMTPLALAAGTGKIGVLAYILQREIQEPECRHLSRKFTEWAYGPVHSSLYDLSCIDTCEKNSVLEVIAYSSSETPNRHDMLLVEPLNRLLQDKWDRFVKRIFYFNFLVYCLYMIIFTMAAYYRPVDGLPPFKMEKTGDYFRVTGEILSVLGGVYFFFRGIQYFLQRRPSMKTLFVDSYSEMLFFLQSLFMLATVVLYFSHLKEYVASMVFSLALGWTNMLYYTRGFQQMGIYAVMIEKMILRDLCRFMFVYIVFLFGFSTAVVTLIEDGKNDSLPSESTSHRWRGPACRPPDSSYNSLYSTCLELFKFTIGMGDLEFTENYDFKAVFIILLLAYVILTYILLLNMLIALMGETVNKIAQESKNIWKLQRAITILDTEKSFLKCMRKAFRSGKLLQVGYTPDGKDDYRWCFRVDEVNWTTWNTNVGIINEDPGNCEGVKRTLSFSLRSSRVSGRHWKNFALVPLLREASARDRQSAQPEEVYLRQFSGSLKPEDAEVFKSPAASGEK
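Cells expressing TRPV1 were dye-loaded with Fluo-8 and read kinetically: 10 s baseline, 3 min after compound (agonist portion), then 2 min after EC20 capsaicin (allosteric enhancer portion). Calcium-bound dye fluorescence at 480/520 nm.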
ClpP mod = qHTS Assay for Activators of ClpP; ATP-dependent Clp protease proteolytic subunit (Bacillus subtilis (strain 168)), P80244; Potency, µM (top dose mostly 57.5 µM), without a hit: at the highest dose activity change, negative = active; AID 651965, 2013; purified B. subtilis ClpP, FRET peptide cleavage, 20 min; 1.9% of 340,000 active; active = well fitted falling curve with a large enough effect; inconclusive = small, poorly fitted or top-dose-only effect; inactive = no such curve, though single readings can be large or run the other way; note: potency is the fitted concentration of half-maximal effect; the source files actives as falling curves though it sought activators and does not explain the sign; nearly all actives have a fitted effect of over 65% in size; many hits overshoot -100%
Target sequence (P80244 whole entry, looked up): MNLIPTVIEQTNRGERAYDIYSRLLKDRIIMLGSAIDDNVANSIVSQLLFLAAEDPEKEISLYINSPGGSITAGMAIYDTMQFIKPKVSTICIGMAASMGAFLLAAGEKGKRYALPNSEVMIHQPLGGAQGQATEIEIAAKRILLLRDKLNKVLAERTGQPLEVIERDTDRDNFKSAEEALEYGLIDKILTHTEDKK
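Buffer: 100 mM Tris/HCl pH8, 100 mM KCl, 0.05% low protease BSA, 2.5% glycerol, 0.01% Tween-20. ClpP 10 microg/mL final; 20 min RT; delta FRET normalized to ADEP and DMSO controls.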
PINK1 modulator = modulators of PINK1 expression. 0.2% of 410,000 active. AID 624263. Potency, µM (titrated, usually from 76.6 µM), for the others: at the highest dose activation (PINK1 increase), usual class: activators. PINK1 immunofluorescence, high-content cytometry, 24 h; active = well fitted activation curve with a large enough effect; inconclusive = small, poorly fitted or top-dose-only effect; inactive = flat fitted curve, though single readings scatter; cell line not stated here;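 note: potency is the fitted concentration of half-maximal effect; % of control where 0% means no effect; nearly all actives have a fitted effect of over 65% in size; a mitochondrial uncoupler was the plate control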
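PINK1 protein, normally rapidly degraded, was detected by immunofluorescence after 24 hour compound treatment of a stable cell line. Titration data (5 concentrations) came from laser-scanning cytometry, with CCCP-treated wells as controls.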
Sfp inh = blocks B. subtilis Sfp PPTase activity; Q9F4F7; Biochemical Sfp PPTase activity, qHTS; Potency, µM, without a hit: max response, negative = inhibition, hits mostly inhibitors; 3.5% of 310,000 active; active = well fitted inhibition curve with a large enough effect; inconclusive = small, poorly fitted or top-dose-only effect, or another doubt; inactive = no such curve, though single readings can be large or run the other way;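 note: the enzyme is Sfp with the accession as filed and its product quenches rhodamine fluorescence; potency is the fitted concentration of half-maximal effect; 0% = enzyme reaction without inhibitor and -100% = no enzyme wells; top concentration of the series not given in the record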
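Reaction rates are the 30-min fluorescence difference (ex 525, em 598 nm) in wells containing 15 nM Sfp, 5 uM rhodamine-CoA and 12.5 uM BHQ-2-YbbR at pH 7.6 with 10 mM MgCl2.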
Menin-MLL FL inh = inhibitors of human menin-MLL interaction, wild-type MLL peptide. Fluorescence polarization, fluorescein-MLL peptide displacement from menin. FP activity change, % at 61.4 µM. 290,000 tested, under 10 active. AID 1766; inconclusive = falling polarisation curve, or a change in total fluorescence; inactive = total fluorescence flat and polarisation flat or rising; no compound was filed as active; the % refers to the polarisation; negative = inhibition;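 note: % of control where 0% means no effect; inhibitors lower the polarisation; unlabelled MLL peptide was the positive control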
TRPML1 agonist = activates the human TRPML1 channel; AID 624414; Q9GZU1; activation, % (test concentration not listed); TRPML1-expressing cells, Ca2+ dye fluorescence, FDSS; host cell line not named in the record; reference of the full effect not given here; 0.12% of 410,000 active; in the data active = activation above about 50%; inconclusive = about 30% to 50%; inactive = below about 30%; note: 0% is about no effect; the text of the record puts the active cut at 80%
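In this qHTS format, compounds were pin-transferred onto Ca8-dye-loaded TRPML1-DL cells induced with Tet overnight, and intracellular Ca2+ fluorescence was recorded kinetically for 110 s after a 10 s baseline. A subsequent 4uM final 54-4 (EC80) addition followed by a second 110 s read served as the antagonist phase.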
TRPML1 inh = human mucolipin-1 channel inhibition | activity change, negative = inhibition, % (no concentration beside the values) | Q9GZU1 | 0.02% of 390,000 active | AID 624415 | TRPML1-inducible cells, Ca2+ dye fluorescence, FDSS; hits give low values; inhibition of EC80 agonist-evoked calcium signal; in the data active means activity change below about -50%; inconclusive means about -30% to -50%; inactive means above about -30%;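 note: stimulus is agonist 54-4 at its EC80 concentration; % is set by controls: 0 for no effect and ±100 for the full control effect; compound concentration not given in the record; the text of the record puts the active cut at -80%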
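Tet-induced TRPML1-DL cells loaded with Ca8 no-wash calcium dye were read kinetically on FDSS. Compound addition was followed by EC80 agonist 54-4 (4 uM final); inhibition was read over 110 s.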
Numbers without * were called inactive; ? = inconclusive; · = no result given; [ ] = remark or other dose. Rows are unselected; 4.4% or so of the library scored in one or more.

SMILES	TRPV1 potentiator	ClpP mod	PINK1 modulator	Sfp inh	Menin-MLL FL inh	TRPML1 agonist	TRPML1 inh
CC(=O)c1ccc(OCC(=O)OCC(=O)N(CC(C)C)c2c(N)n(Cc3ccccc3)c(=O)[nH]c2=O)cc1	-9	-1.7%	2.4%	·	·	-0.7	-14
O=C(CC1CCCCC1)NCc1nc(-c2ccccc2)no1	-3	-0.5%	1.5%	1%	1.9	-1.0	5
Cc1c(C=NNc2ccccc2)[nH]c(=O)[nH]c1=O	·	2.3%	-1.2%	·	·	0.8	4
CCCCn1c(N)c(N(CC(C)C)C(=O)c2ccc(COc3ccccc3)o2)c(=O)[nH]c1=O	4	-3.9%	-0.2%	11%	·	1.0	4
Cc1oc2ccc(O)c(CN3CCN(Cc4ccccc4)CC3)c2c1C(=O)Nc1cccc(Cl)c1C	·	-0.4%	1.8%	·	·	-0.4	0
Cc1cccc(NC(=O)C(=O)NNC(=O)c2ccc(C(C)(C)C)cc2)c1	0	-0.5%	0.9%	23%	-3.2	0.4	13
Nc1ccccc1C=C1Cc2ccccc2C1=O	·	0.0%	-1.1%	·	·	4.3	3
Brc1ccc2cccnc2c1	-15	4.2%	-3.1%	20%	4.7	0.8	14
CCCCC(=O)Nc1cccc(-c2cn3ccccc3n2)c1	?	28µM*	·	-1%	1.6	0.2	11
CCC(=O)c1cccc(-c2ccccc2)c1CC	·	·	11%	·	·	-0.2	3
CC(C)CC(=O)NC(=S)Nc1nc(-c2ccc(Cl)cc2)cs1	-2	1.6%	10%	21%	5.9	-1.0	91
O=C(CSCCc1ccccn1)Nc1cccnc1Cl	-2	0.2%	5.0%[38.3 µM]	16%	5.8	-0.3	-3
Cc1cc(NC(=O)c2cc(-c3ccco3)on2)nn1Cc1ccc(Cl)cc1	-7	390%	?	18µM*	16	1.7	-4
CCN(CC)CCN(C(=O)/C=C/c1cccs1)c1nc2ccc(Cl)cc2s1	-8	-1.2%	1.6%	?	·	2.1	44
COC(CNC(=O)c1ccc(N2CCC3(CC2)OCCO3)c([N+](=O)[O-])c1)OC	16	-0.7%	-0.4%	?	0.3	0.5	-3
CC(C)NCC(O)Cn1c2c(c3ccccc31)CCc1c-2cnn1-c1ccccc1 (configuration not stated)	3	8.9µM*	-6.1%	?	-2.7	0.6	11
COc1ccc(C(=O)NCc2ccccc2OC)c(OC)c1	-7	0.7%	-1.6%	-1%	0.5	0.2	0
O=C(NCc1cccnc1)c1nc(-c2cccs2)no1	-1	·	0.1%	26%	1.0	1.8	6
COc1ccccc1-n1cnnc1SCC(=O)c1cc(C)n(Cc2cccs2)c1C	-6	2.9%	-1.2%	-15%	3.3	0.0	-14
Cc1ccc(NC(=O)CCn2c(=S)oc3ccccc32)cc1	-10	·	16%	4%	1.1	0.2	-3
COc1ccc(N(CC(=O)NCc2ccccc2OC)S(=O)(=O)c2ccc(C)cc2)cc1Cl	-3	-1.1%	2.4%	1%	·	2.0	8
Cc1ccc(S(=O)(=O)NNC(=O)C2CCN(S(=O)(=O)c3ccc(C)cc3)CC2)cc1	-2	-0.5%	0.5%	16%	0.4	-0.7	-11
O=C(NO)c1ccccc1C(F)(F)F	-2	·	0.3%	-10%	0.0	1.2	12
CC(C)N1CCN(Cc2cc(F)ccc2-n2cccn2)CC1CCO (configuration not stated)	7	·	-1.3%	17%	-1.8	0.7	-11
CC(=O)Nc1ccc(NC(=O)CC2Nc3cccc4cccc(c34)NC2=O)cc1 (configuration not stated)	-25	-0.7%	2.3%	-12%	1.7	-0.9	5

Some entries already given, showing only Sfp inh, ClpP mod and Menin-MLL FL inh:
mol	Sfp inh	ClpP mod	Menin-MLL FL inh
O=C(NCc1cccnc1)c1nc(-c2cccs2)no1	26%	·	1.0
COc1ccccc1-n1cnnc1SCC(=O)c1cc(C)n(Cc2cccs2)c1C	-15%	2.9%	3.3
Cc1ccc(NC(=O)CCn2c(=S)oc3ccccc32)cc1	4%	·	1.1

Carrying on.
SMILES	TRPV1 potentiator	ClpP mod	PINK1 modulator	Sfp inh	Menin-MLL FL inh	TRPML1 agonist	TRPML1 inh
C[C@@H]1O[C@H](C2CCCC2)CC2=C1C(=O)OC(C)(C)O2	·	0.7%	3.4%	·	·	-0.8	·
COC(=O)CN1C(=O)[C@@H]2[C@H](C1=O)[C@@H]1CC(C(=O)OC)=C[C@@H](C(=O)OC)[C@@H]3C1=C(C(=O)[C@]3(C)NC(=O)c1ccccc1)[C@@H]2C	·	1.4%	0.3%	·	·	-0.8	21
Cc1nc2c(Cl)cc(Cl)cc2[nH]1	9	-2.1%	-2.3%	23%	0.3	1.0	-12
CCOc1ccc(CCNC(=O)CN2CCN(Cc3ccc(Cl)cc3)C2=O)cc1OCC	·	-0.6%	0.1%	·	·	1.1	-2
COc1cccc(CC(=O)NC2CCCN(Cc3ccccc3F)C2)c1 (configuration not stated)	-15	1.0%	1.0%	21%	0.2	-0.3	-1
CCCC(=O)Nc1nc(C)c(C(C)=O)s1	-2	·	-0.5%	1%	-7.1	0.0	-10
COc1ccccc1CNC(=O)c1sccc1C	8	·	1.8%	5%	0.3	-0.7	-3
OC1CCN(Cc2cccc3ccccc23)CC1	-2	-2.0%	0.3%	-13%	2.7	0.5	6
Cc1cccc(NC(=O)c2ccc(F)c(S(=O)(=O)N(C)C3CCCCC3)c2)c1	·	-9.9%	1.8%	·	·	1.5	28
O=C(CCc1ccccc1)N=C1SC2CS(=O)(=O)CC2N1c1ccc(F)cc1 (configuration not stated)	2	-0.1%	0.6%	14%	-0.7	-0.2	0
CC1Cc2ccccc2N1C(=O)Cn1nc(C(=O)O)c2ccccc2c1=O (configuration not stated)	4	-1.8%	0.8%	-16%	2.2	2.3	17
Cc1ccccc1CC(=O)NCc1cccnc1	-1	-2.2%	-1.1%	13%	3.2	-0.3	3
C=CCNS(=O)(=O)c1ccc(OCC(=O)OCC)cc1	4	-1.7%	3.2%[38.3 µM]	10%	0.2	1.6	3
CCn1c(SCc2ccccc2Cl)nc2ccccc21	13	-1.7%	6.5%	-7%	1.1	5.4	-4
CSCCC(NC(=O)c1ccccc1)C(=O)N1CCN(C(C)=O)CC1 (configuration not stated)	8	-7.7%	-0.2%	·	·	2.5	-5
CCc1ccc(-n2nc(CO)c(C(=O)NCCCc3ccccc3)n2)cc1	·	28µM*	1.9%	·	·	5.2	22
CCc1ccc(C(=O)c2cn(CC(=O)Nc3ccc4c(c3)OCO4)c3ccc(CC)cc3c2=O)cc1	·	1.0%	9.6%	·	·	2.0	-11
COc1cccc(CNc2ncnc3c2nnn3C)c1	·	-1.7%	-1.2%	·	·	2.8	19
CC(C)Cn1cnc2c(c(-c3ccccc3)c(-c3ccccc3)n2Cc2ccco2)c1=N	-7	-3.0%	2.2%	-22%	2.2	4.9	54
COc1cc2c(cc1OC)/C(=C/C(=O)c1ccc(F)cc1)NCC2	5	0.4%	-1.5%	-15%	3.2	-1.0	17
Cc1ccccc1OCc1n[nH]c(=S)n1Cc1ccccc1	2	-0.6%	2.1%	15%	4.1	1.1	0
CN1CC(c2ccc(C#N)cc2)C2(COc3ccccc3C2=O)C12C(=O)Nc1ccccc12 (configuration not stated)	3	-1.1%	-0.6%	-1%	0.3	-0.4	17
Nc1[nH]c(C(=O)c2ccc(Br)cc2)c(-c2ccc(Br)cc2)c1C(=O)NCCc1c[nH]c2ccccc12	·	-0.4%	3.5%	·	·	-0.8	·
CCCc1cc(=O)[nH]c(SCC(=O)N2CCN(S(=O)(=O)c3ccc(Cl)cc3)CC2)n1	4	1.1%	-1.2%	-2%	6.7	0.8	1
Cc1nnsc1Sc1cccc(C(F)(F)F)c1	16	0.8%	8.7%[38.3 µM]	0%	3.9	1.3	-6
The list goes on:
SMILES	TRPV1 potentiator	ClpP mod	PINK1 modulator	Sfp inh	Menin-MLL FL inh	TRPML1 agonist	TRPML1 inh
Cc1ccc(C(=O)NC(C)c2ccc(S(N)(=O)=O)cc2)s1 (configuration not stated)	-24	·	0.9%	6%	-0.1	0.2	12
COc1ccccc1N(C(C)=O)c1nc(C)cc(C)c1C#N	6	1.6%	0.0%	-1%	3.2	-0.4	-21
C#CCNc1ccc([N+](=O)[O-])cc1	28	·	-0.2%	9%	-3.9	1.6	5
N#Cc1c(/N=C/c2cccs2)sc2c1CCC2	-6	1.4%	-0.4%	?	4.8	0.1	1
O=C(NC1CC1)c1ccc(-c2cnc3cccnn23)cc1	·	4.3%	0.6%	·	·	-0.1	·
N#Cc1c(-c2ccc(Cl)cc2)c(-c2ccc(Cl)cc2)nn(CCOC(=O)CCC(=O)O)c1=O	·	-12%	0.7%	·	·	0.0	0
CCOC(=O)C(=O)Nc1sc(C(=O)N(CC)CC)c(C)c1C#N	1	-3.5%	1.9%	-13%	0.0	-0.2	11
O=C(NCCCNC(=O)c1cnccn1)c1ccc(Cl)c(Cl)c1	-11	·	0.2%	16%	0.8	-0.6	3
CCc1nc2ccc(C(=O)N3CCN(C(C)=O)CC3)cn2c1N(C=O)Cc1ccc(OC)cc1	·	-7.2%	0.9%	·	·	-0.2	·
O=C1NC(c2ccc3c(c2)OCO3)Nc2ccccc21 (configuration not stated)	-1	32µM*	?	0%	1.4	-0.4	-8
O=C(Nc1ccc2oc(-c3cc(Br)ccc3Cl)nc2c1)c1ccc2ccccc2c1	·	4.2%	4.9%	·	·	0.2	1
O=C(CN1CCN(c2ncccn2)CC1)N1CCc2ccccc21	-5	-11%	-1.6%	6%	0.0	1.5	-5
Cn1c(-c2ccc[nH]c2=O)nc2cc(Cl)ccc21	-1	0.5%	2.2%	12%	14	0.2	2
CCN(Cc1cc2cc(C)ccc2[nH]c1=O)S(=O)(=O)c1ccccc1	-15	?	11%[38.3 µM]	-3%	3.3	0.5	12
